Screening results from PubChem.
A1 inh: inhibitors of A1. MEF A1-2A-BIM cells, caspase-Glo luminescence, 3 h; percent of clofoctol signal, DMSO as zero. caspase activation, % (no concentration beside the values). actives 0.51% (n = 21,000);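 active = most replicate scores above 10, or exactly half above 10 with mean activity above 10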;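 also: effector caspase 3 and 7 activity cleaving a DEVD luciferin substrate; 50 nL library stock added to about 30 µL; numbers are from one replicate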
BJeLR viab HTS: lowers viability of BJeLR cells; BJeLR fibroblasts viability, CellTiterGlo ATP luminescence, 48 h; HRASV12, hTERT and SV40 LT/ST transformed; viability loss activity score, % (test concentration not listed); actives 0.64% (n = 30,000); AID 2275; in the data active = viability loss activity score above about 50%; about a fifth of its hits are not listed in these tables;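 also: higher score means fewer live cells and less ATP luminescence; stock transfer was 50 or 100 nL into about 30 µL; 0% = vehicle wells and 100% = a reference killing control; one replicate is shown; the record names a cut of 85%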
Numbers without * were called inactive; · = no result given. Not all compounds are listed (hit frequency here may not be typical).

Results follow in this order: A1 inh | BJeLR viab HTS
C[C@@H]1[C@H]2[C@H](OC3O[C@H](CO)[C@@H](O)[C@H](O)[C@H]3O)OC=C(C(=O)O)[C@H]2C[C@@H]1O (some centres undefined)
 : 0.0 | -11
CC(NC(=O)C1CCCN1S(=O)(=O)c1ccccc1)c1ccccc1 (centres undefined)
 : 0.3 | -1.7
COc1ccc(CNC(=O)c2ccc(C)c(C)c2)cc1
 : -1.7 | -5.0
COC1OC2COC(c3ccccc3)OC2C(O)C1O (centres undefined)
 : -0.1 | -0.7
C[C@H]1CN([C@@H](C)CO)C(=O)c2cccc(NC(=O)Nc3ccc4c(c3)OCO4)c2O[C@@H]1CN(C)S(=O)(=O)c1ccccc1
 : · | -7.2
CCSC1=N/C(=C\c2ccc(C(C)C)cc2)C(=O)S1
 : -0.7 | 0.2
C[C@H]1CN([C@@H](C)CO)C(=O)c2cc(NC(=O)c3ccncc3)ccc2O[C@@H]1CN(C)Cc1ccc(Cl)c(Cl)c1
 : -0.4 | -3.3
COC(CNC(=O)c1cc2c(C)nc3ccccc3c2o1)OC
 : · | -2.7
O=C(NCCN1CCCC1)c1cc(Sc2cccc(Cl)c2)nc2ccccc12
 : 3.1 | 3.4
Cc1c(C#N)c(Sc2ccccc2Cl)nc2ccccc12
 : 2.2 | 0.9
CC(C)NC(=O)Nc1ccc2c(c1)C(=O)N([C@H](C)CO)C[C@@H](C)[C@H](CN(C)S(=O)(=O)c1ccc(Cl)cc1)O2
 : 0.0 | 0.4
CCc1ccccc1NC(=O)CCN1C(=O)c2ccccc2C1=O
 : -0.4 | -4.0
C[C@@H]1CN([C@H](C)CO)C(=O)c2cc(NC(=O)Nc3ccccc3)ccc2O[C@@H]1CN(C)S(=O)(=O)c1cccs1
 : -0.3 | 2.3
O=C(Cn1ncc2ccccc21)N1CCC(Cc2ccccc2)CC1
 : 1.4 | 2.0
Clc1ccc(CSc2nc3ccccc3s2)cc1
 : · | 5.7
O=C(NCCN1CCc2ccccc2C1)c1cc(-c2ccc(Br)s2)nc2ccccc12
 : · | 4.2
CCCCC1(COC(=O)c2ccc(OC)cc2)C(=O)N(c2ccccc2)N(c2ccccc2)C1=O
 : 0.3 | -3.7
C[C@@H]1CN([C@@H](C)CO)C(=O)c2cccc(NS(=O)(=O)c3ccc(Cl)cc3)c2O[C@@H]1CN(C)C
 : · | -0.6
CCCn1nnnc1NCc1ccc(F)cc1
 : · | 0.5
CO/N=C(\C(=O)N[C@@H]1C(=O)N2C(C(=O)O)=C(COC(N)=O)CS[C@H]12)c1ccco1
 : 0.6 | 4.4

Grouped by structure, those above with a furan ring, fused or not
Results follow in this order: A1 inh | BJeLR viab HTS
COC(CNC(=O)c1cc2c(C)nc3ccccc3c2o1)OC
 : · | -2.7
CO/N=C(\C(=O)N[C@@H]1C(=O)N2C(C(=O)O)=C(COC(N)=O)CS[C@H]12)c1ccco1
 : 0.6 | 4.4

The results go on:
Results follow in this order: A1 inh | BJeLR viab HTS
O=C(Sc1ccc(Oc2ccc(SC(=O)c3ccco3)cc2)cc1)c1ccco1
 : 2.0 | 8.5
Cc1cc2c(cc1S(=O)(=O)N1CC(C)CC(C)C1)OCC(=O)N2 (centres undefined)
 : -0.1 | 4.4
O=c1c(Cc2ccccc2)c(O)c2cccc3c4ccccc4n1c23
 : -0.4 | -0.4
C[C@H](CO)N1C[C@H](C)[C@H](CN(C)C(=O)NC2CCCCC2)Oc2c(NC(=O)c3nc4ccccc4s3)cccc2C1=O
 : · | -5.2
COc1cc(O)c(C(=O)c2c(C)cc(O)cc2OC)c(O)c1
 : 0.2 | 47
COc1ccc(CN(C)C[C@H]2Oc3c(NC(=O)Nc4c(C)noc4C)cccc3C(=O)N([C@H](C)CO)C[C@H]2C)cc1
 : · | 2.4
COc1ccc(NC(=O)c2ccc(CSc3ccccn3)cc2)cc1
 : -0.1 | -5.6
C=CCn1c(SCC(=O)Nc2ccc(C)cc2)nc2sc3c(c2c1=O)CCCC3
 : 1.4 | -8.3
COc1ccc(S(=O)(=O)N(C)C[C@@H]2Oc3c(cccc3N(C)C)C(=O)N([C@H](C)CO)C[C@@H]2C)cc1
 : · | 0.9
COc1ccc(NC(=O)Nc2cccc3c2O[C@@H](CN(C)S(=O)(=O)c2ccc(F)cc2)[C@H](C)CN([C@H](C)CO)C3=O)cc1
 : · | 0.8
C[C@H]1CN([C@@H](C)CO)C(=O)c2cccc(NC(=O)c3cnccn3)c2O[C@H]1CN(C)C(=O)NC1CCCCC1
 : · | 2.8
CCOc1ccc2nc(SCC(=O)N3CCOCC3)sc2c1
 : 0.9 | -1.6
C[C@@H]1CN([C@H](C)CO)C(=O)c2cccc(NC(=O)C3CC3)c2O[C@H]1CN(C)Cc1ccc(Cl)c(Cl)c1
 : · | -2.1
COc1ccc(NC(=O)Nc2ccc3c(c2)C(=O)N([C@@H](C)CO)C[C@@H](C)[C@H](CN(C)C(=O)NC(C)C)O3)cc1
 : -0.4 | 3.5
CCOC(=O)c1ccccc1NC(=O)c1nc(-c2ccc(C)cc2)n2c1CCCCC2
 : 0.2 | -6.0
Cc1nc(SCc2ccc(C(F)(F)F)cc2)c2c(=O)n(C)c(=O)n(C)c2n1
 : · | 1.8
C[C@@H]1CN([C@H](C)CO)C(=O)c2cccc(NC(=O)NC3CCCCC3)c2O[C@H]1CN(C)Cc1ccncc1
 : · | -8.8
Cc1ccc(S(=O)(=O)Nc2ccc3c(c2)C(=O)N([C@H](C)CO)C[C@@H](C)[C@@H](CN(C)S(=O)(=O)c2cccs2)O3)cc1
 : -0.1 | 9.2
C[C@@H]1CN([C@H](C)CO)C(=O)c2cccc(NC(=O)Nc3ccccc3)c2O[C@H]1CN(C)CC1CC1
 : · | -11
C[C@@H]1CN([C@@H](C)CO)C(=O)c2cc(N(C)C)ccc2O[C@@H]1CN(C)Cc1ccc(C(=O)Nc2ccccc2N)cc1
 : · | 47
CC(NC(=O)Nc1ccccn1)N1C(=O)C2C3C=CC(C3)C2C1=O (centres undefined)
 : -0.4 | -4.6
C[C@@H]1CN([C@@H](C)CO)C(=O)c2cccc(NS(=O)(=O)c3cccs3)c2O[C@H]1CN(C)Cc1ccccc1
 : · | 3.5
Cc1cc(C)c(S(=O)(=O)/N=C2\SCCN2S(=O)(=O)c2c(C)cc(C)cc2C)c(C)c1
 : 0.2 | 2.4
CCCN(C#N)c1nc(NC(C)C)nc(NC(C)C)n1
 : 0.2 | -1.3
C[C@@H]1CN([C@@H](C)CO)C(=O)c2cccc(NC(=O)c3nc4ccccc4s3)c2O[C@H]1CN(C)Cc1ccc(-c2ccccc2)cc1
 : · | -13
C=C(C)c1cccc(C(C)(C)NC(=O)Nc2ccc3c(c2)oc2ccccc23)c1
 : -0.4 | 0.9
COc1ccc(CCNC(=O)c2ccc3c(SCC(=O)O)c4c(nc3c2)CCCC4)cc1OC
 : · | -3.1
C[C@@H]1CN([C@H](C)CO)C(=O)c2cccc(NC(=O)c3ccc(-c4nccs4)cc3)c2O[C@@H]1CN(C)C(=O)NC1CCCCC1
 : · | 2.1
C[C@H]1CN([C@@H](C)CO)C(=O)c2cc(NC(=O)Nc3ccccc3)ccc2O[C@@H]1CN(C)Cc1ccc(Cl)c(Cl)c1
 : -0.6 | 1.8
C[C@H]1CN([C@@H](C)CO)C(=O)c2cc(NS(=O)(=O)c3ccc(F)cc3)ccc2O[C@H]1CN(C)Cc1ccc(-c2ccccc2)cc1
 : -0.3 | 0.1
CC(C)NC(=O)Nc1ccc2c(c1)C(=O)N([C@H](C)CO)C[C@@H](C)[C@@H](CN(C)S(=O)(=O)c1cccs1)O2
 : -0.5 | 7.1
Cn1c(=O)oc2cc(S(=O)(=O)NCCN3CCC(Cc4ccccc4)CC3)ccc21
 : · | 5.5
O=[N+]([O-])c1cccc2c(Br)[nH]nc12
 : -0.5 | -5.2
C[C@@H]1CN([C@@H](C)CO)C(=O)c2cc(NC(=O)Nc3cccc4ccccc34)ccc2O[C@H]1CN(C)Cc1ccccc1
 : 0.2 | -0.3
COc1ccc(NC(=O)N(C)C[C@H]2Oc3c(NS(=O)(=O)c4ccccc4)cccc3C(=O)N([C@@H](C)CO)C[C@H]2C)cc1
 : · | 3.7
CSc1cccc(N2C(=S)NC3c4ccccc4OC24CCCC34)c1 (centres undefined)
 : · | 0.4
COc1ccc(N2CCN(C(=O)c3ccc(NS(=O)(=O)c4cccs4)cc3)CC2)cc1
 : · | -2.9
S=C1NN=C(c2ccccc2)C(c2ccccc2)N1 (centres undefined)
 : 0.7 | 3.7
COc1ccc(S(=O)(=O)Nc2ccc3c(c2)C(=O)N([C@@H](C)CO)C[C@H](C)[C@@H](CN(C)Cc2ccc(C(F)(F)F)cc2)O3)cc1
 : -0.9 | 1.4
Cc1oc2c(c1C(=O)NCCCn1ccnc1)C(=O)c1ccccc1C2=O
 : -1.0 | 30

Given as labelled records: two of the compounds above.
CC(C)NC(=O)Nc1ccc2c(c1)C(=O)N([C@H](C)CO)C[C@@H](C)[C@@H](CN(C)S(=O)(=O)c1cccs1)O2
- A1 inh: -0.5
- BJeLR viab HTS: 7.1
Cn1c(=O)oc2cc(S(=O)(=O)NCCN3CCC(Cc4ccccc4)CC3)ccc21
- A1 inh: ·
- BJeLR viab HTS: 5.5

The results go on.
Results follow in this order: A1 inh | BJeLR viab HTS
C[C@H](CO)N1C[C@H](C)[C@H](CN(C)Cc2ccc3c(c2)OCO3)Oc2ccc(NC(=O)C3CCCCC3)cc2C1=O
 : 0.3 | -3.7
Cc1ccc(C(=O)NCC2CCCO2)cc1C (centres undefined)
 : -1.4 | 3.7
C[C@H]1CN([C@@H](C)CO)C(=O)c2cc(NC(=O)c3ccncc3)ccc2O[C@H]1CN(C)Cc1ccc(C(=O)O)cc1
 : 0.3 | 1.4
C[C@H]1CN([C@@H](C)CO)C(=O)c2cccc(N(C)C)c2O[C@H]1CN(C)C(=O)Nc1ccccc1
 : · | -2.1
COc1ccc(S(=O)(=O)Nc2ccc3c(c2)C(=O)N([C@@H](C)CO)C[C@@H](C)[C@@H](CN(C)S(=O)(=O)c2ccc(OC)cc2)O3)cc1
 : -0.8 | -2.5
Cc1ccc(C(=O)/C=C/Nc2ccc(C(F)(F)F)cc2)cc1
 : 0.1 | -2.1
COc1cccc(-c2nnc(NC(=O)c3ccc(S(=O)(=O)N4CCCCC4C)cc3)o2)c1 (centres undefined)
 : · | 17
C[C@@H]1CN([C@@H](C)CO)C(=O)c2cc(NC(=O)CCCCCC(=O)Nc3ccccc3N)ccc2O[C@@H]1CN(C)Cc1ccc2c(c1)OCO2
 : · | 6.0
C[C@H](CO)N1C[C@H](C)[C@H](CN(C)CC2CCCCC2)Oc2ccc(NC(=O)Nc3cccc4ccccc34)cc2C1=O
 : 0.3 | -0.3
CCCSc1nc(C)cc(=O)[nH]1
 : 0.2 | 0.0
C[C@H]1CN([C@@H](C)CO)C(=O)c2cc(NS(=O)(=O)c3ccccc3)ccc2O[C@H]1CN(C)C
 : 0.3 | -2.7
COc1ccc(N=c2cc(-c3ccc(OC)cc3)oc3ccc(O)cc23)cc1
 : 0.6 | 2.5
CCOC(=O)c1sc(SCC(=O)c2ccc(Cl)cc2Cl)nc1C
 : -0.1 | 5.8
CCCOC(=O)c1ccc(NC(=O)/C=C/c2ccccc2)cc1
 : -1.1 | 0.9
C[C@H](CO)N1C[C@H](C)[C@@H](CN(C)Cc2ccccc2)Oc2ccc(NC(=O)CCC(F)(F)F)cc2C1=O
 : 0.0 | 1.9
Cc1ccccc1CSc1nnc2c(n1)[nH]c1ccccc12
 : -0.5 | 5.6
Cc1ccc(Nc2cc(C(=O)N3CC(C)CC(C)C3)c3ccccc3n2)cc1C (centres undefined)
 : -1.0 | 17
CC(NC(=O)COc1ccccc1C(C)(C)C)c1ccccc1 (centres undefined)
 : -0.7 | -2.0
C[C@H](CO)N1C[C@H](C)[C@H](CN(C)S(=O)(=O)c2ccc(Cl)cc2)Oc2ccc(NC(=O)NC3CCCCC3)cc2C1=O
 : -0.6 | 2.7
Cc1noc(C)c1S(=O)(=O)Nc1ccc2c(c1)C(=O)N([C@@H](C)CO)C[C@H](C)[C@@H](CN(C)C(=O)NC1CCCCC1)O2
 : -0.3 | -1.8
C[C@@H]1CN([C@H](C)CO)C(=O)c2cc(NS(=O)(=O)c3cn(C)cn3)ccc2O[C@@H]1CN(C)CC1CCCCC1
 : -0.3 | -1.6
COC(CNC(=O)CN1CCN(Cc2ccccc2)C1=O)OC
 : · | -2.3
C[C@@H]1CN([C@@H](C)CO)C(=O)c2cc(NC(=O)CCCN(C)C)ccc2O[C@@H]1CN(C)CC1CCCCC1
 : -0.7 | -4.4
Cc1noc(C)c1NC(=O)N(C)C[C@@H]1Oc2ccc(NC(=O)CCN3CCOCC3)cc2C(=O)N([C@H](C)CO)C[C@@H]1C
 : 0.5 | 11
COc1ccccc1NC(=O)C12CC3CC(CC(C3)C1)C2
 : 0.1 | 0.6
CC1(CO)CC(O)CC2(C)C3=C(CCC12)C(=O)OC3 (centres undefined)
 : -0.6 | -3.9
COc1ccc(S(=O)(=O)Nc2ccc3c(c2)C(=O)N([C@H](C)CO)C[C@@H](C)[C@@H](CN(C)C(=O)Nc2ccc4c(c2)OCO4)O3)cc1
 : 0.8 | 0.8
CC(=O)Nc1cc(NC(C)=O)c2nc(N)sc2c1
 : 0.5 | 2.0
C[C@@H]1CN([C@@H](C)CO)C(=O)c2cc(NC(=O)Cc3ccccc3)ccc2O[C@@H]1CN(C)S(C)(=O)=O
 : 0.0 | -1.6
C[C@@H]1CN([C@@H](C)CO)C(=O)c2cc(NC(=O)CCC(F)(F)F)ccc2O[C@@H]1CN(C)S(=O)(=O)c1cn(C)cn1
 : -0.7 | -1.2
COc1ccc(C(=O)NCc2cc3cc(Cl)ccc3[nH]2)cc1COc1ccccc1Cl
 : · | 13
O=C(Nc1cccc(C(F)(F)F)c1)c1ccc(-c2ccccc2)cc1
 : -1.5 | 6.0
COc1ccc(CCNC(=S)NCCc2ccccc2)cc1OC
 : -0.4 | 2.0
